Screens: PubChem BioAssay, National Center for Advancing Translational Sciences (NCATS)
G9a inh: G9a (human) methyltransferase inhibition | AID 504332 | actives 8.8% (n = 350,000) | Potency, µM (doses to about 102 µM), without a hit: at the top dose activity, negative = inhibition, actives largely listed as inhibitors | G9a H3K9 monomethylation, AlphaScreen, 2 h; also: % is scaled to controls: 0 for no effect and ±100 for the full control effect; nearly all actives have a fitted effect of over 75% in size
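Step 1: enzyme (final 20 nM) with compound, 15 min RT. Step 2: substrate peptide 500 nM and SAM 20 uM, 2 h RT. Step 3: anti-H3K9me1 antibody and AlphaScreen beads, 10 min, then plate read.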
APEX1 inh: blocks human APE1 abasic DNA cleavage. actives 0.35% (n = 350,000). recombinant APE1, TAMRA/BHQ-2 abasic DNA cleavage fluorescence. Potency, µM (series often up to 65.8 µM), for the others: at the top dose activity change, negative = inhibition, usual class: inhibitors. AID 2517. P27695;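 also: plate controls were vehicle for no effect and reference inhibitor for full effect; nearly all actives have a fitted effect of over 55% in size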
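Substrate: short duplex with […] THF abasic site, 5'-TAMRA and 3'-BHQ-2, 50 nM final. APE1 at 0.75 nM, preincubated 15 min RT with compound. Fluorescence increase from first to third read measured activity.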
Pol beta inh: inhibitors of human DNA polymerase beta | Pol beta primer extension/strand displacement, fluorescence kinetic | Potency, µM (highest dose often 114 µM), for the others: at the highest dose activity change, negative = inhibition, most hits filed as inhibitors | actives 1.3% (n = 340,000) | AID 485314; also: % is scaled to controls: 0 for no effect and ±100 for the full control effect
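Curves were derived by four-parameter Hill fits of normalized qHTS data. The kinetic fluorescent primer-extension read was taken at 0 and 10 min after 50 nM substrate, following a 15 min room-temperature preincubation of 10 nM enzyme with compounds.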
Anesthetic bind: candidate novel general anesthetic via apoferritin binding. actives 0.074% (n = 350,000). Potency, µM (doses to about 77.5 µM), for the others: at the top dose activity change, negative = displacement, most hits filed as inhibitors. apoferritin/1-aminoanthracene competitive binding, fluorescence; also: % is scaled to controls: 0 for no effect and ±100 for the full control effect; nearly all actives have a fitted effect of over 20% in size
Target sequence (P02791 2-175 limits assumed): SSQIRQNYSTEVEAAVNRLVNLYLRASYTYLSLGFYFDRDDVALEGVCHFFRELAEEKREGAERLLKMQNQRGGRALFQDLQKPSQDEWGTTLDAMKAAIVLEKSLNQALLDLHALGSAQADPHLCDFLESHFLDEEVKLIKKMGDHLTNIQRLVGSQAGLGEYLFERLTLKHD
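Apoferritin-based anesthetic binding model; compound displacement of fluorescent 1-AMA measured as endpoint fluorescence after 10 minutes at room temperature, scaled to free-ligand and complex controls.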
Pol eta inh: blocks human DNA polymerase eta activity | recombinant Pol eta, fluorescent DNA replication assay | Q9Y253 | actives 1.2% (n = 390,000) | Potency, µM (titrated, usually from 114 µM), for inactives: at the highest dose activity change, negative = inhibition, most hits filed as inhibitors; also: % is scaled to controls: 0 for no effect and ±100 for the full control effect
Target sequence (Q9Y253 whole entry, looked up): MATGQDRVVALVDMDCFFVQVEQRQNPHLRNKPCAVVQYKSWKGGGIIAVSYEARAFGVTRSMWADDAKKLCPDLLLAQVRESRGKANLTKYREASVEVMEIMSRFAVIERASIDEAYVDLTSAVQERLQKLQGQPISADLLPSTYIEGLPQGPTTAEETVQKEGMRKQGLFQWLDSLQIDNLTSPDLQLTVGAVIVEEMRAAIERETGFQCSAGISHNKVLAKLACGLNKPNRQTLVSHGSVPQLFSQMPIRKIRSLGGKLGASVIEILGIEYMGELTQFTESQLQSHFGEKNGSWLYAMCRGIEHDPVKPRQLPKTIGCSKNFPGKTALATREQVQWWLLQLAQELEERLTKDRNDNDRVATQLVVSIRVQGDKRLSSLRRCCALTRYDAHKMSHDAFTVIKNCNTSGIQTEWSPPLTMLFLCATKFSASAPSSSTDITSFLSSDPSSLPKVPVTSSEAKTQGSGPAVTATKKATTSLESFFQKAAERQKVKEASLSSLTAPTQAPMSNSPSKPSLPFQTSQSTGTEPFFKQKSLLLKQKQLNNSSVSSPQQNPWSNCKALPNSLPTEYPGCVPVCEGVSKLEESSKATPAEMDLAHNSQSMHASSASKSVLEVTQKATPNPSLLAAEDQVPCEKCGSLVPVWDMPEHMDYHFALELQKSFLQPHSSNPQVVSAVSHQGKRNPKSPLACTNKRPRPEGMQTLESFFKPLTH
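Fluorescent replication assay: 50 nM final substrate added after a 15 min room-temperature compound preincubation with 10 nM enzyme. Signal taken at 0 min and again at 10 min.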
Pol iota inh: inhibitors of human DNA polymerase iota; Q9UNA4; Pol iota fluorescent replication assay, 10 min; Potency, µM (series often up to 115 µM), for the others: at the top dose activity, negative = inhibition, usual class: inhibitors; actives 1% (n = 390,000); AID 588590
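Fluorescent replication assay read twice, at 0 min and 10 min after adding 50 nM (final) substrate. Enzyme (10 nM) and compounds were first incubated 15 min at room temperature; enzyme-free buffer wells were negative controls.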
BLM helicase inh: blocks DNA unwinding by human BLM helicase; P54132; recombinant BLM DNA unwinding, fluorescence dequenching; Potency, µM (titrated, usually from 56.1 µM), inactives show at the top dose activity change, negative = inhibition, hits mostly inhibitors; actives 0.2% (n = 350,000); AID 2528;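 also: plate controls were vehicle for no effect and no enzyme for full effect; nearly all actives have a fitted effect of over 35% in size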
POLK inh: blocks human DNA polymerase kappa activity | Q9UBT6 | purified Pol kappa, fluorescent DNA synthesis assay, 10 min | Potency, µM (series often up to 107 µM), without a hit: top-dose activity, negative = inhibition, actives largely listed as inhibitors | actives 0.53% (n = 400,000) | AID 588579; also: % is scaled to controls: 0 for no effect and ±100 for the full control effect
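Kinetic fluorescence screen: compound preincubated 15 min RT with 10 nM enzyme; 50 nM substrate (final) initiates; reads at 0/10 min.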
* hit, by the source's call; ? = inconclusive; · = no result given; & = joins results of further samples; [ ] = another dose, or the depositor's remark. Calls follow the shape of the dose curve; as a rule, active = well fitted curve in the direction sought with a large enough effect; inconclusive = small, poorly fitted or top-dose-only effect, or another doubt; inactive = no such curve, though single readings can be large; an effect the other way counts as inactive or inconclusive. Potency is read from the fitted curve at half-maximal effect. This is a subset; rates above refer to the full screens.

Values in the order – Pol iota inh	Pol eta inh	Pol beta inh	BLM helicase inh	APEX1 inh	G9a inh	Anesthetic bind	POLK inh
- FC(F)(F)c1cccc(CNC2c3ccccc3-c3ccccc32)c1
 : 133%[activator]	?	6%	-4%	-25%	1.1µM*	3%	-12%
- Oc1ccc(N2CCN(c3nc(-c4cccs4)nc4ccccc34)CC2)cc1
 : 6%	-11%	23%	-6%	19%	·	4%	4%
- CCN(c1ccc(NC(=O)COC(=O)CCC(=O)c2ccc(F)cc2)cc1)C(C)C
 : 9%	-15%	-6%	-6%	0%	?	?	-6%
- O=C(c1ccc(Br)o1)N1CCC(Cc2ccccc2)CC1
 : ?	-11%	-22%	-7%	-1%	40µM*	-21%	-15%
- Cc1cccc(OCC(=O)N/N=C/c2ccc(N(C)C)cc2)c1
 : 73%[activator]	-21%	-3%	-8%	-3%	40µM*	-17%	-10%
- CC(Nc1ccccc1N1CCCCC1)C(=O)N1CCc2ccccc21 (stereo unspecified)
 : 135%[activator]	-13%	0%	-8%	6%	40µM*	-2%	-20%
- COCCNC(=S)NN=C1CCC(c2ccccc2)CC1 (stereo unspecified)
 : -15%	-15%	-21%	-6%	0%	8.9µM*	-13%	-4%
- Cn1cccc1-c1cc2n(n1)CCC(=O)N2CC(=O)Nc1ccc(F)cc1Cl
 : 20%	-23%	0%	2%	·	?	-4%	-5%[60.1 µM]
- CCNc1nc(NCC)nc(N(C)/N=C/c2ccco2)n1
 : 1%	-9%	17%	-4%	10%	-9%[0.501 µM]	-8%	5%
- N#CC(c1ccc(Cl)cc1)c1ccc(Cl)nn1 (stereo unspecified)
 : 0%	5%	6%	-2%	16%	28%	?	10%
- CCCCCNCC(=O)Nc1cc(C(F)(F)F)ccc1OCCOC
 : 0%	?	3%	-4%	3%	8.9µM*	-11%	-19%
- Cc1cc(NC(=O)CN(C)C)c([N+](=O)[O-])cc1C
 : 14%	-20%	1%	1%	-5%	-24%	-1%	8%
- COc1cc(CN2CCCCCC2)c([N+](=O)[O-])cc1OC
 : 54%[activator]	-5%	1%	2%	-15%	·	-7%	-19%
- O=C(CCCn1ncn2c(cc3occc32)c1=O)N1CCc2ccccc2C1
 : ?	?	12%	-2%	-4%	-2%[59 µM]	3%	-20%
- Cc1cccc(Nc2ncnc(N)n2)c1
 : 69%[activator]	-24%	3%	-4%	-3%	1%	-1%	-3%
- CCOC(=O)Cc1csc(SCC(=O)Nc2cccc(Cl)c2)n1
 : -3%	-12%	4%	-4%	-5%	10%	?	-7%
- COc1ccc(NC(=S)N2CCC(Cc3ccccc3)CC2)cc1OC
 : 46%[activator]	-16%	16%	-10%	22%	71µM*	-13%	0%
- O=C(Nc1nnc(SCc2ccc(F)cc2)s1)c1cnccn1
 : 48%[activator]	-10%	17%	-2%	3%	4%[59 µM]	-6%	0%
- CN1CCN(c2nc(-c3ccccc3O)nc3ccccc23)CC1
 : 50%[activator]	-11%	1%	44%[activator]	-34%	32µM*	-8%	-3%
- C/C(CC(=O)Nc1cc(C)ccn1)=N\NC(=O)c1cccc(C)c1O
 : -28%	-20%	?	-22%	2%	12%	-13%	-29%
- c1csc(-c2nc3ccccn3c2Nc2ccc3c(c2)OCCO3)c1
 : 7%	-13%	4%	-8%	·	?	-3%	-6%
- Cc1nnc(SCC(=O)Nc2ccc3c4c(cccc24)CC3)n1C
 : 9%	-12%	1%	-2%	-1%	19%[12.7 µM]	5%	-24%
- COc1cc2c(cc1OC)C1=NC(=O)CN1C(SCc1ccccc1)=N2
 : 11%	-18%	-15%	-6%	9%	?	-5%	-2%
- O=C(CSc1nccn1-c1cccc(Cl)c1)Nc1ccc2c(c1)OCCO2
 : 65%[activator]	-20%	12%	-2%	-3%	35µM*	?	-3%
- COc1ccccc1CSc1ncc(-c2ccc([N+](=O)[O-])cc2)[nH]1
 : -9%	-24%	8%	-5%	-4%	8.9µM*	-5%	-4%
- COc1ccc(CC(=O)c2ccccc2C(=O)O)cc1
 : -25%	-1%	1%	-2%	0%	?	-8%	-2%
- Cc1ccc(NC(=O)CSc2ccc(-c3ccccn3)nn2)cc1
 : 44%[activator]	-5%	?	-2%	4%	17%	-1%	-2%
- O=C(NC1(C(F)(F)F)C(=O)Nc2c1c(=O)[nH]c(=O)n2-c1ccc(Cl)cc1)c1ccccc1F (stereo unspecified)
 : 1%	-15%	-2%	-1%	·	-2%[59 µM]	26%	0%[60.1 µM]
- O=C(c1ccc([N+](=O)[O-])s1)N1CCCc2ccccc21
 : -11%	2%	-19%	-6%	24%	40µM*	?	-10%
- COC(=O)c1ccc(NC(=O)CSc2ccc(-c3ccccn3)nn2)cc1
 : 3%	3%	22%	-8%	0%	?	-2%	-12%

No new results follow: an excerpt of the list.
Values in the order – Pol iota inh	Pol eta inh	Pol beta inh	BLM helicase inh	APEX1 inh	G9a inh	Anesthetic bind	POLK inh
- CCCCCNCC(=O)Nc1cc(C(F)(F)F)ccc1OCCOC
 : 0%	?	3%	-4%	3%	8.9µM*	-11%	-19%
- Cc1cc(NC(=O)CN(C)C)c([N+](=O)[O-])cc1C
 : 14%	-20%	1%	1%	-5%	-24%	-1%	8%
- COc1cc(CN2CCCCCC2)c([N+](=O)[O-])cc1OC
 : 54%[activator]	-5%	1%	2%	-15%	·	-7%	-19%
- O=C(CCCn1ncn2c(cc3occc32)c1=O)N1CCc2ccccc2C1
 : ?	?	12%	-2%	-4%	-2%[59 µM]	3%	-20%
- Cc1cccc(Nc2ncnc(N)n2)c1
 : 69%[activator]	-24%	3%	-4%	-3%	1%	-1%	-3%
- CCOC(=O)Cc1csc(SCC(=O)Nc2cccc(Cl)c2)n1
 : -3%	-12%	4%	-4%	-5%	10%	?	-7%
- COc1ccc(NC(=S)N2CCC(Cc3ccccc3)CC2)cc1OC
 : 46%[activator]	-16%	16%	-10%	22%	71µM*	-13%	0%
- O=C(Nc1nnc(SCc2ccc(F)cc2)s1)c1cnccn1
 : 48%[activator]	-10%	17%	-2%	3%	4%[59 µM]	-6%	0%
- CN1CCN(c2nc(-c3ccccc3O)nc3ccccc23)CC1
 : 50%[activator]	-11%	1%	44%[activator]	-34%	32µM*	-8%	-3%
- C/C(CC(=O)Nc1cc(C)ccn1)=N\NC(=O)c1cccc(C)c1O
 : -28%	-20%	?	-22%	2%	12%	-13%	-29%
- c1csc(-c2nc3ccccn3c2Nc2ccc3c(c2)OCCO3)c1
 : 7%	-13%	4%	-8%	·	?	-3%	-6%
- Cc1nnc(SCC(=O)Nc2ccc3c4c(cccc24)CC3)n1C
 : 9%	-12%	1%	-2%	-1%	19%[12.7 µM]	5%	-24%
- COc1cc2c(cc1OC)C1=NC(=O)CN1C(SCc1ccccc1)=N2
 : 11%	-18%	-15%	-6%	9%	?	-5%	-2%
- O=C(CSc1nccn1-c1cccc(Cl)c1)Nc1ccc2c(c1)OCCO2
 : 65%[activator]	-20%	12%	-2%	-3%	35µM*	?	-3%
- COc1ccccc1CSc1ncc(-c2ccc([N+](=O)[O-])cc2)[nH]1
 : -9%	-24%	8%	-5%	-4%	8.9µM*	-5%	-4%
- COc1ccc(CC(=O)c2ccccc2C(=O)O)cc1
 : -25%	-1%	1%	-2%	0%	?	-8%	-2%
- Cc1ccc(NC(=O)CSc2ccc(-c3ccccn3)nn2)cc1
 : 44%[activator]	-5%	?	-2%	4%	17%	-1%	-2%

Remaining list, next part.
Values in the order – Pol iota inh	Pol eta inh	Pol beta inh	BLM helicase inh	APEX1 inh	G9a inh	Anesthetic bind	POLK inh
- O=C(NCc1ccccc1)c1ccc(COCC(F)(F)F)o1
 : 7%	-14%	-1%	2%	-3%	-21%[59 µM]	-1%	-4%
- COC(=O)CCCC1=CC2=CC(=O)C(C)(OC(=O)C3CCCC3)C(=O)C2=CO1 (stereo unspecified)
 : 22µM*	20µM*	45µM*	-1%&-29%	2%&-11%	?	-20%	?
- CC1CN(CCCSc2ccc(Cl)cc2)CC(C)O1 (stereo unspecified)
 : 58%[activator]	?	6%	-1%	6%	?	-3%	3%
- Cc1cc(C)n(CCN(C)Cc2cn[nH]c2-c2ccc(F)cc2F)n1
 : 31%	-20%	6%	0%	-1%	-30%	-3%	-7%
- Clc1cccc(CN2CCCCCCC2)c1Cl
 : -7%	-15%	12%	6%	19%	10µM*	-3%	-4%
- CC(/C=N/NC(=O)CSc1nnc(SCc2ccccc2)s1)=C\c1ccco1
 : -9%	?	?	?	-3%	11µM*	?	-10%
- CCN(CC)CCNC(=O)c1ccc(-c2nc(CN3CCc4ccccc43)c(C)o2)cc1
 : 14%	-17%	-7%	-8%	·	?	6%	-14%[60.1 µM]
- COc1cc(OC)c(OC)cc1CN1CCN(C(=O)c2cccc3ccccc23)CC1
 : 16%	-3%	107%	0%	-10%	·	-9%	-2%
- Cc1ccc(-c2cc(C(=O)Nc3ccc4c(c3)OCCO4)c3ccccc3n2)cc1
 : ?	-16%	2%	-9%	-5%	?	-8%	-1%
- O=C(Cc1cccs1)NC(c1ccccc1)c1ccccc1
 : 97%[activator]	-15%	16%	-3%	9%	?	-8%	5%
- COC(=O)c1c(NC(=O)COc2c(C)ccc(C)c2C)sc2c1CCC(C)C2 (stereo unspecified)
 : 4%	-23%	-22%	-1%	·	-10%[59 µM]	-10%	-18%
- N#CC(c1ccc(Cl)nn1)c1ccccc1Cl (stereo unspecified)
 : 5%	2%	18%	-1%	-4%	4%	-21%	-4%
- COc1cc(C2C3=C(CC(C)(C)CC3=O)NC3=C2C(=O)c2ccccc23)ccc1O (stereo unspecified)
 : 107%[activator]	?	-9%	-8%	-7%	45µM*	?	-13%
- COc1cc(OC)cc(C(=O)NCc2ccc3c(c2)cc(C)n3C)c1
 : 11%	-21%	-18%	0%	-7%	40µM*	-18%	-7%
- O=C(CN1CCc2ccccc21)NC(=O)NCc1ccco1
 : 7%	7%	-1%	-8%	-2%	?	-13%	-4%
- Cc1cccc(-n2c(SCC(=O)NCc3ccco3)nnc2-c2ccco2)c1
 : -6%	-7%	?	-10%	1%	-1%[59 µM]	-13%	-9%
- C#CCn1c(=NC(=O)CSCC(=O)N2CCOCC2)sc2ccccc21
 : 21%	-7%	29%	2%	2%	3%	3%	12%

Printed as active in Pol iota inh (from the list above):
compound,Pol iota inh,Pol eta inh,BLM helicase inh,APEX1 inh,G9a inh,Anesthetic bind,POLK inh
COC(=O)CCCC1=CC2=CC(=O)C(C)(OC(=O)C3CCCC3)C(=O)C2=CO1 (stereo unspecified),22µM*,20µM*,-1%&-29%,2%&-11%,?,-20%,?
